# Rango release inh – inhibitors of RanGTP-induced Rango-importin beta complex dissociation; O95149+P62826; Biochemical FRET Rango-importin beta, RanGTP-induced dissociation; Potency, µM (doses to about 46.1 µM), without a hit: at the top dose activity change, negative = inhibition; 340,000 tested, 0.071% active; active means falling FRET ratio curve, often poorly fitted, with flat reads before Ran was added; inconclusive means other falling curves, or compound fluorescence or quenching; inactive means flat or rising ratio curve;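 also: potency is read from the fitted curve at half-maximal effect; % of control where 0% means no effect; nearly all actives have a fitted effect of over 45% in size; -100% = wells without RanGTP and RCC1; the record marks most hits as doubtful in a second field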
#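 Rango (0.1 uM)–importin beta (0.25 uM) complex; RanGTP-RCC1 trigger; 45 min RT; CFP/YFP FRET read.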
# Rango complex inh – inhibitors of Rango-importin beta complex formation | Rango CFP/YFP FRET sensor + importin beta, 45 min | 340,000 tested, 0.031% active | Potency, µM (top dose mostly 92.2 µM), for inactives: at the highest dose inhibition of complex formation; active = rising FRET ratio curve, often small or poorly fitted; inconclusive = mostly compound fluorescence or quenching in the first reads; inactive = flat curves in all reads;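 also: potency is read from the fitted curve at half-maximal effect; 0% = DMSO wells and 100% = buffer wells lacking importin beta; nearly all actives have a fitted effect of over 15% in size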
#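 Inhibition scored from the CFP 486 nm/YFP 530 nm FRET ratio 45 min after adding 0.125 microM importin beta to 50 nM Rango biosensor preincubated 5 min with compound (room temperature, PBS with DTT, Tween-20, BSA). No-importin wells as positive control.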
# miR-21 reporter – raises the signal of a miR-21 reporter. HeLa miR-21 FLuc reporter, luciferase, 48 h. Potency, µM (top dose mostly 38.3 µM), without a hit: top-dose reporter change, positive = more light. 340,000 tested, under 10 active. AID 2288; active = well fitted rising curve with a large enough effect; inconclusive = small, poorly fitted or top-dose-only effect; inactive = no such curve, though single readings can be large or run the other way;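 also: % of control where 0% means no effect; miR-21 action dims this reporter so a rising signal means less miR-21 action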
#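 HeLa miR-21-FLuc reporter line, endogenous miR-21; 2000 cells/well in DMEM/10% FBS; compound titration up to ~40uM final, 48 h, 37 degree Celsius; luciferase detection reagent, 15 min lysis, CCD luminescence.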
# GLA inh pH 4.5 – blocks human alpha-galactosidase A at pH 4.5 | P06280 | purified enzyme, 4-MU-alpha-Gal fluorescence, pH 4.5 | activity change, negative = inhibition, % at 105 µM | 230,000 tested, under 10 active; inconclusive = small, poorly fitted or top-dose-only inhibition, or a rising curve; inactive = flat fitted curve, though single readings scatter; no compound was filed as active;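 also: 0% = full activity with enzyme and -100% = basal without enzyme; dose as in the result columns while the protocol names 77 µM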
# Target sequence (P06280 whole entry, looked up): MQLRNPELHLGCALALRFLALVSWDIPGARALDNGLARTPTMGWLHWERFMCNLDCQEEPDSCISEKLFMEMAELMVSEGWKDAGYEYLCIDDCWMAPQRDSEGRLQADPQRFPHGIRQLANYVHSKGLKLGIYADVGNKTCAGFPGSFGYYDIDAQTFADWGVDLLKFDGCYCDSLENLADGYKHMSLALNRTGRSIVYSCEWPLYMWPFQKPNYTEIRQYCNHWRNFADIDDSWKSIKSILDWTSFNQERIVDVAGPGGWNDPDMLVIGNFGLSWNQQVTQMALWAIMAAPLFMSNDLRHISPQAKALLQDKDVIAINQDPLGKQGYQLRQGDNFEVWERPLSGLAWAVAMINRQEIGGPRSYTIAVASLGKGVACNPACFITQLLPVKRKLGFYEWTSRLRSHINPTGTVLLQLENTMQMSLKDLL
# * = called active by the depositor; ? = inconclusive; . = not tested or not shown; & = joins results of further samples; [ ] = dose if it differs, or a comment. These rows are one share of the data, so the mix of outcomes need not match the whole.
SMILES	Rango release inh	Rango complex inh	miR-21 reporter	GLA inh pH 4.5
O=C1NC(=O)N(Cc2ccccc2)C(=O)/C1=C/N1CCCc2ccccc21	?	?	-14.3%	3.0
COC(=O)c1c(C)[nH]c(C(=O)C(Cc2ccccc2)N(C)C)c1C (configuration not stated)	-0.3%	?	-19.7%	-6.6
CNCCCc1ccccc1	-11.0%	-3.2%	-3.7%	-19.4
O=c1c2ccccc2nc(CSc2ncnc3nc[nH]c23)n1-c1ccccc1	-6.8%	-2.1%	-2.2%	-0.8
O=C1/C(=C/c2ccccc2Cl)N2CCC1CC2	-5.7%	-0.8%	-7.2%	5.4
CC(C(N)=O)N1CC(c2ccccc2)CC1=O (configuration not stated)	-0.9%	4.3%	-2.8%	0.0
CN1CC(C(=O)c2ccccc2)C(c2ccccc2)C1 (configuration not stated)	-8.4%	-2.1%	-0.7%	.
C#CC[N+]1(C)C2CCC1CC(O)C2 (configuration not stated)	2.5%	4.1%	-1.5%	7.5[21.1 µM]
COC(=O)C1=C(c2ccc(F)cc2F)C[C@@H]2CC[C@H]1N2C(=O)NCc1ccc(F)cc1	6.0%	0.8%	.	.
CC(C)N1OC2CC1c1nc3ccccc3n1C2 (configuration not stated)	-16.1%	?	10.0%	-3.7
O=c1[nH]c(=O)n(-c2ccccc2)c(O)c1/C=C/C=Nc1ccccc1	?	?	1.4%	-13.2
O=C1CN=C(c2ccccc2)c2ccccc2N1	13.4%	-3.3%	-1.6%	.
CC(=O)Nc1ccc(OC(=O)N2CCCCC2)cc1	6.8%	-3.9%	2.9%	-0.2
COc1cc2c(c(OC)c1OC)-c1ccc(C(=O)O)cc1[C@@H](NC(C)=O)CC2	-9.5%	0.7%	.	.
CN(C)C1=C(C#N)C(c2ccccc2)=NP(N(C)C)(N(C)C)=N1	0.7%	-0.8%	-14.4%	1.6
CCN1CCN(c2ccc(NC(C)=O)cc2Cl)CC1	?	-1.0%	-3.7%	12.2
CN1CCc2nc(SCC(=O)OC(C)(C)C)c(C#N)cc2C1	?	?	-45.1%	1.7
CN1C(=O)C(=Cc2cc([N+](=O)[O-])ccc2N2CCCCC2)C(=O)N(C)C1=O	13.7%	-3.0%	-0.3%	-4.9
O/N=C1\CCC2CN(C3CCCCC3)CC2C1 (configuration not stated)	-9.4%	-1.3%	-1.6%	4.1
CCSc1nnc([C@@H](N)Cc2c[nH]c3ccccc23)o1	-21.8%	-9.1%	-17.8%	6.0
O=c1[nH]c(=S)n(-c2ccccc2Cl)c(O)c1C=NCCN1CCNCC1	-8.7%	-3.7%	1.6%	.
CC/C(=N\N1CCN(C)CC1)c1c(O)[nH]c(=O)[nH]c1=O	33.4%	-3.0%	-7.9%	-1.4
CS(=O)(=O)NNP(=O)(NNS(C)(=O)=O)NC(=O)c1ccc(Br)cc1	8.4%	0.0%	0.9%	-5.8
Cc1cc(NC(=O)CCC(=O)N2CCC3(CC2)OCCO3)no1	9.8%	-4.0%	-0.9%	-7.9
CC12CC[C@H]3[C@@H](CCC4(O)C[C@H](O)CCC34/C=N/NC(=O)c3ccccc3[N+](=O)[O-])C1(O)CCC2C1=CC(=O)OC1 (some centres not stated)	-7.8%	0.3%	?	.
O=C(CN1CCOCC1)c1ccc2cc[nH]c2c1	-0.8%	0.7%	-11.9%	7.1
CN(C)c1ccc(/C=C2/C(=N\O)C3CCN2CC3)cc1	?	?	-41.9%	2.5
COc1ccccc1NC1=NCCS1	0.8%	1.9%	-0.5%	-0.3
CCCN(CCC)C1CCc2ccc(O)cc2C1 (configuration not stated)	-11.5%	-2.0%	.	1.7
CC(C(=O)Nc1ccc(Cl)cc1Cl)N1CC=C(c2ccccc2)CC1 (configuration not stated)	-6.1%	0.0%	-3.4%	4.8
O=c1[nH]c(=O)n(-c2ccc(Cl)cc2)c(O)c1C=NCCN1CCCCC1	-3.7%	0.3%	0.2%	-0.7
CCCC(=O)N(C)C1=Nc2ccc(Cl)cc2C(c2ccccc2)=[N+]([O-])C1	3.3%	-0.7%	0.4%	0.5
CCCNC(=O)N1C2CCC1CC(O)(c1cccnc1)C2 (configuration not stated)	-8.4%	2.3%	-1.3%	8.4
O=C(CN1CC(c2ccccc2)CC1=O)Nc1cccc(F)c1 (configuration not stated)	?	10.2%	-3.6%	1.1
COc1ccc(C2CN(C)CC2C(=O)c2ccc(F)cc2)cc1Cl (configuration not stated)	-1.1%	-4.1%	0.0%	0.9
CCN1CCN(CC(c2ccccc2)c2ccccc2)CC1	-12.5%	-3.0%	-7.3%	.
Cc1cccc(C)c1OC(=O)Cc1ccccc1	0.1%	0.0%	-2.2%	-8.8
O=C(NCc1ccc(C(=O)N2CCC3(CC2)OCCO3)cc1)c1ccc2c(c1)OCO2	19.9%	4.9%	-5.4%	1.9
Cc1ccc2c(c1)C1CN(C)CCC1N2C(=O)/C(C#N)=C/c1ccc2c(c1)OCO2 (configuration not stated)	-12.6%	-1.3%	-0.4%	1.9
N#CC(C#N)=Cc1ccc(O)c(O)c1	-27.8%	-4.4%	.	-3.8&-11.6
CC(=O)NC1=C(N2CC2C)C(=O)C(NC(C)=O)=C(N2CC2C)C1=O (configuration not stated)	-2.7%	-5.5%	.	.
Cc1ccc2c(CN3CC=C(c4ccccc4)CC3)cc(=O)oc2c1C	-7.6%	-1.3%	-5.9%	-11.4
Cc1cccc(-n2c(C)nc3ccc(Cl)cc3c2=O)c1	-0.4%	0.2%	-9.3%	.
COc1ccc(OC)c(CN2CCN(C(=O)Cc3ccccc3)CC2)c1	-9.0%	-1.1%	-2.5%	.
S=C1NC2(CCCCC2)NC12CCCCC2	?	-0.2%	-7.3%	-9.0
C=CCN1C[C@@H](C)N(C(c2ccc(C(=O)N(CC)CC)cc2)c2cccc(OC)c2)C[C@@H]1C (some centres not stated)	2.0%	-0.7%	.	.
ClCCN(CCCl)c1ccc(C=NNc2ncccn2)cc1	-1.3%	0.3%	.	.
O=c1c2ccccc2nc(-c2ccccc2)n1-c1ccccc1	12.1%	-2.8%	13.3%	-9.1
CCOc1ccccc1OCC(=O)Nc1ccc(Cl)cc1C(=O)c1ccccc1	0.1%	-0.9%	-2.7%	-5.9
CCOP(=O)(OCC)C(O)c1ccc(N(C)C)cc1 (configuration not stated)	-13.8%	-4.6%	2.6%	-2.0
Cc1ccc(-n2c(O)c(C=NC3CCCCC3N)c(=O)[nH]c2=O)cc1C (configuration not stated)	-20.1%	-0.3%	-1.3%	5.4
O=C1NC(=S)NC(=O)C1=Cc1ccc(OCc2ccccc2)cc1	-7.2%	-0.4%	.	.
Cc1ccnc(SCc2nc3ccccc3s2)n1	1.2%	0.9%	-70.8%	-4.6
N#CC1(c2ccccc2)CCN(C2CC(=O)N(c3cccc(F)c3)C2=O)CC1 (configuration not stated)	1.8%	5.1%	-2.6%	-0.5
COC(=O)C1=C(c2cccc(Cl)c2)C[C@@H]2CC[C@H]1N2C(=O)NCC1CC1	0.4%	-3.8%	.	.
COC(=O)C1=C(c2ccc(Cl)c(C(F)(F)F)c2)C[C@@H]2CC[C@H]1N2C(=O)NCc1cc(C)oc1C(F)(F)F	5.3%	0.9%	.	.
Cn1cc(C(=O)OCC(=O)Nc2ccccc2)c2ccccc21	2.6%	-3.9%	.	.
O=C(Cc1ccccc1)OC(COCc1ccccc1)CN1CCOCC1 (configuration not stated)	?	-1.1%	-7.0%	-3.3
CCN(CC)S(=O)(=O)N1CCC(C(=O)N2CCC3(CC2)OCCO3)CC1	7.3%	-0.2%	2.0%	-2.8[21.1 µM]
O=C(O)c1ccc(N=Cc2c(O)n(Cc3ccc(F)cc3)c(=O)[nH]c2=O)cc1	2.1%	0.0%	-7.0%	-1.8

# The list goes on:
SMILES	Rango release inh	Rango complex inh	miR-21 reporter	GLA inh pH 4.5
O=c1[nH]c(=O)n(Cc2ccccc2)c(O)c1/C=C1\C=Nc2ccccc21	?	?	2.8%	10.8
CC[C@@]1(O)C(=O)OCc2c1cc1n(c2=O)Cc2cc3c(N)cccc3nc2-1	-1.3%	3.4%	?	-7.1
CCn1ccnc1CN1CCCC(C(=O)c2cc(C)c(OC)c(C)c2)C1 (configuration not stated)	5.5%	-9.2%	8.1%	4.6
CC(=O)Nc1ccccc1C(=O)OCc1ccc(C(=O)c2ccccc2)cc1	5.3%	-1.8%	-7.6%	12.0
CC[C@@H](O)C[C@H]1CCC[C@@]2(C[C@@H]3OC(=O)/C=C/[C@@](C)(O)[C@@H](O)[C@H](C)[C@@H](O)[C@H](OC4CCC(N(C)C)C(C)O4)[C@@H](O)[C@](C)(O)CCCCC/C=C/[C@@H]4CC(C)(C)O[C@@]4(O)C[C@H](O2)[C@H]3C)O1 (some centres not stated)	1.1%	-3.5%	.	.
CCS(=O)(=O)N1N=C(c2cccc(NS(C)(=O)=O)c2)CC1c1ccccc1 (configuration not stated)	-6.4%	?	0.3%	5.9
COc1ccc(-c2cc(=NCCCCCC(=O)O)c3cc(C)ccc3o2)cc1	-17.0%&4.3%	?	-51.8%	?
CC1([N+](=O)[O-])COP(=O)(Nc2ccc(F)cc2)OC1 (configuration not stated)	5.8%	3.3%	.	.
Nc1ccc2c(c1)oc1ccccc12	6.0%	4.3%	-47.5%	9.8
CC1=NN(c2ccccc2)C(=O)C1=C(C)C	-13.5%	7.7%	0.2%	?
COc1ccc(-c2n(-c3ccccn3)c3ccccc3[n+]2-c2ccccn2)cc1	-17.0%	?	8.7%	1.7
Cc1cc(Br)ccc1N1C(=O)CC(=O)NC1=O	-11.3%	2.5%	1.7%	-5.1
CCCC[N+]1(C)[C@@H]2CC(OC(=O)[C@H](CO)c3ccccc3)C[C@H]1[C@@H]1O[C@@H]12 (some centres not stated)	-4.8%	-0.9%	-2.4%	2.1
O=C(OCC(=O)c1cccs1)C1=COCCO1	1.7%	-1.8%	-46.1%	2.1
NC(N)=NC(=O)c1nc(Cl)c(N)nc1N	-4.9%&0.7%&-8.5%	-3.8%&-2.8%&0.4%	-1.4%	?
O=c1[nH]c(O)c(/C=C2\C=NN=C2c2ccccc2)c(=O)[nH]1	16.6%	-1.2%	-1.1%	0.5
N#Cc1c(/N=C/C2C(=O)NC(=S)NC2=O)sc2c1CCCC2	-23.5%	-1.8%	-4.2%	-6.9
COc1cc(CN2CCCC(C(=O)c3sccc3C)C2)cc(Cl)c1O (configuration not stated)	-5.9%	3.4%	0.6%	-1.9
CCOC(=O)C1(c2ccccc2)CCN(CCC(=O)Nc2cccc(Br)c2)CC1	-8.2%	0.4%	.	.
CCOc1ccc2nc(N=Nc3c(O)[nH]c(=O)[nH]c3=O)sc2c1	-3.8%	?	0.8%	-7.9
C=CCN1CC[C@]23c4c5ccc(O)c4OC2C(=O)CC[C@@]3(O)C1C5 (some centres not stated)	0.6%	-3.7%	-1.9%	2.7
CCCCCCC[n+]1ccc(-c2cc[n+](CCCCCCC)cc2)cc1	0.2%	4.6%	27.8%	-10.1&3.1
CC(=O)N1N=C2C3CCN(CC3)C2C1c1ccc(C)cc1 (configuration not stated)	2.1%	3.5%	-3.2%	10.4
CN1C(=O)c2ccccc2NC(=O)C1Cc1ccccc1 (configuration not stated)	-13.0%	-1.2%	-6.3%	-3.1
COc1cc(CC2(CCc3ccncc3)C(=O)NC(=O)NC2=O)cc(OC)c1OC	14.5%	-1.1%	-3.7%	2.8
CC1C=CCCC12C(=O)NC(=O)NC2=O (configuration not stated)	-5.9%	-3.2%	.	.
Cc1cc(Oc2ccc(C(F)(F)F)cc2[N+](=O)[O-])c2c3c(c(=O)oc2c1)CCCC3	5.6%	1.4%	1.9%	-0.1
COc1ccc(-n2nc(C(=O)NCC(=O)N3CCC4(CC3)OCCO4)c3ccccc3c2=O)c(OC)c1	14.4%	-0.5%	-7.4%	.
Oc1ccc(Cl)c(Cl)c1	7.8%	-2.1%	.	.
O=[N+]([O-])c1ccccc1CNCCc1ccc(F)cc1	7.4%	1.3%	-35.9%	10.7
COC(=O)C1=C(c2ccc(Cl)c(C(F)(F)F)c2)C[C@@H]2CC[C@H]1N2C	-7.7%	2.7%	.	.
